Sfp PPTase inh – inhibitors of Bacillus subtilis Sfp phosphopantetheinyl transferase. Biochemical Sfp PPTase activity, qHTS. Potency, µM, for the others: max response, negative = inhibition, most hits filed as inhibitors. Q9F4F7. hit rate 3.5% among 310,000; active means well fitted inhibition curve with a large enough effect; inconclusive means small, poorly fitted or top-dose-only effect, or another doubt; inactive means no such curve, though single readings can be large or run the other way;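 further: the enzyme is Sfp with the accession as filed and its product quenches rhodamine fluorescence; potency means the concentration at half of the fitted maximal effect; 0% = enzyme reaction without inhibitor and -100% = no enzyme wells; top concentration of the series not given in the record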
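Buffer: 50 mM Hepes-Na pH 7.6, 10 mM MgCl2, 0.01% Nonidet P-40, 0.01% BSA. Enzyme 15 nM, pre-exposed to compound 15 min; substrates then added and fluorescence change tracked over 30 min.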
Menin MLL FP FL – inhibitors of human menin-MLL interaction, wild-type MLL peptide | Fluorescence polarization, fluorescein-MLL peptide displacement from menin | FP activity change, % at 61.4 µM | 290,000 tested, under 10 active; inconclusive = falling polarisation curve, or a change in total fluorescence; inactive = total fluorescence flat and polarisation flat or rising; no compound was filed as active; the % refers to the polarisation; negative = inhibition;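 further: % of control where 0% means no effect; inhibitors lower the polarisation; unlabelled MLL peptide was the positive control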
gsp antagonist – antagonizes gsp, the McCune-Albright syndrome mutation. gsp-mutant cells, cAMP HTRF, 30 min; control for the full effect not named in the record. Potency, µM (titrated, usually from 76.9 µM), without a hit: top-dose activity change, negative = inhibition, actives largely listed as inhibitors. hit rate 0.4% among 340,000. AID 624288; active = falling curve of any shape with a large fitted effect; inconclusive = falling curve, mostly with a smaller effect; inactive = flat or rising curve; cell line not stated here;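 further: intracellular cAMP measured with PDE inhibitor Ro 20-1724 present during compound exposure; potency means the concentration at half of the fitted maximal effect; on the % scale 0 is the no-effect control and ±100 the full control effect; nearly all actives have a fitted effect of over 65% in size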
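HTRF cAMP measurement after 30 min RT detection following 30 min, 37C compound treatment alongside […] (added as 300 uM solution) in G418-selected cells seeded at 2000/well and grown 16–24 h.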
D2 PAM – human D2 receptor positive allosteric modulation | P14416 | hit rate 0.23% among 360,000 | DiscoveRx D2 beta-arrestin cells, luminescence, 90 min; 100% = 57 uM dopamine signal | potentiation, % (concentration not given with the values); active = potentiation of 50% or more; inconclusive = 30% to 50%; inactive = 30% or less;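 further: compound concentration not given in the record; tested on top of an EC20 dose of dopamine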
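PathHunter beta-arrestin assay in DiscoveRx D2 cells. Compounds were added with an EC20 of dopamine (50 nM final) for 90 min at 37 deg C. Luminescence was read 1 h after detection reagent, with 57 uM dopamine as the EC100 control.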
ClpP mod – qHTS Assay for Activators of ClpP | hit rate 1.9% among 340,000 | ATP-dependent Clp protease proteolytic subunit (Bacillus subtilis (strain 168)), P80244 | purified B. subtilis ClpP, FRET peptide cleavage, 20 min | Potency, µM (doses to about 57.5 µM), without a hit: top-dose activity change, negative = active; active = well fitted falling curve with a large enough effect; inconclusive = small, poorly fitted or top-dose-only effect; inactive = no such curve, though single readings can be large or run the other way; further: potency means the concentration at half of the fitted maximal effect; the source files actives as falling curves though it sought activators and does not explain the sign; nearly all actives have a fitted effect of over 65% in size; many hits overshoot -100%
Target sequence (P80244 whole entry, looked up): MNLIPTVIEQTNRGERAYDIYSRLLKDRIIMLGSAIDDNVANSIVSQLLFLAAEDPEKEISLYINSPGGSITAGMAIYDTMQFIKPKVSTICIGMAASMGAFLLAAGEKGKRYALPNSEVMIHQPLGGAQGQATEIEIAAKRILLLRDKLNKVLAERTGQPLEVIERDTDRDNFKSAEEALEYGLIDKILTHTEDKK
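Buffer: 100 mM Tris/HCl pH8, 100 mM KCl, 0.05% low protease BSA, 2.5% glycerol, 0.01% Tween-20. ClpP 10 microg/mL final; 20 min RT; delta FRET normalized to ADEP and DMSO controls.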
gsp ag – agonists of gsp mutant (McCune-Albright syndrome); gsp mutant cells, cAMP HTRF, 30 min; control for the full effect not named in the record; Potency, µM (highest dose often 76.9 µM), for the others: at the highest dose activation (cAMP increase), usual class: activators; hit rate 0.13% among 340,000; active = well fitted activation curve with a large enough effect; inconclusive = small, poorly fitted or top-dose-only effect, or another doubt; inactive = no such curve, though single readings can be large or run the other way; cell line not stated here;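 further: phosphodiesterase inhibitor Ro 20-1724 added with compounds to block cAMP breakdown; potency means the concentration at half of the fitted maximal effect; nearly all actives have a fitted effect of over 60% in size; about a fifth of the inactives were tested at one dose only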
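Cells in DMEM/10% FBS with G418 were pretreated with compounds in DMSO plus […] (300 uM stock) for 30 min at 37C. cAMP was measured by HTRF (cAMP-d2 plus anti-cAMP antibody-K) after 30 min at room temperature.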
TRPV1 PAM – human TRPV1 potentiation; potentiation, % at 8.33 µM; hit rate 0.02% among 320,000; TRPV1-expressing cells, Fluo-8 calcium influx, capsaicin EC20 potentiation; host cell line not named in the record; control for the full effect not named in the record; AID 540277; active means potentiation above 80%; inconclusive means 30% to 80%; inactive means below 30%; further: 0% is about no effect
Target sequence (Q8NER1 whole entry, looked up): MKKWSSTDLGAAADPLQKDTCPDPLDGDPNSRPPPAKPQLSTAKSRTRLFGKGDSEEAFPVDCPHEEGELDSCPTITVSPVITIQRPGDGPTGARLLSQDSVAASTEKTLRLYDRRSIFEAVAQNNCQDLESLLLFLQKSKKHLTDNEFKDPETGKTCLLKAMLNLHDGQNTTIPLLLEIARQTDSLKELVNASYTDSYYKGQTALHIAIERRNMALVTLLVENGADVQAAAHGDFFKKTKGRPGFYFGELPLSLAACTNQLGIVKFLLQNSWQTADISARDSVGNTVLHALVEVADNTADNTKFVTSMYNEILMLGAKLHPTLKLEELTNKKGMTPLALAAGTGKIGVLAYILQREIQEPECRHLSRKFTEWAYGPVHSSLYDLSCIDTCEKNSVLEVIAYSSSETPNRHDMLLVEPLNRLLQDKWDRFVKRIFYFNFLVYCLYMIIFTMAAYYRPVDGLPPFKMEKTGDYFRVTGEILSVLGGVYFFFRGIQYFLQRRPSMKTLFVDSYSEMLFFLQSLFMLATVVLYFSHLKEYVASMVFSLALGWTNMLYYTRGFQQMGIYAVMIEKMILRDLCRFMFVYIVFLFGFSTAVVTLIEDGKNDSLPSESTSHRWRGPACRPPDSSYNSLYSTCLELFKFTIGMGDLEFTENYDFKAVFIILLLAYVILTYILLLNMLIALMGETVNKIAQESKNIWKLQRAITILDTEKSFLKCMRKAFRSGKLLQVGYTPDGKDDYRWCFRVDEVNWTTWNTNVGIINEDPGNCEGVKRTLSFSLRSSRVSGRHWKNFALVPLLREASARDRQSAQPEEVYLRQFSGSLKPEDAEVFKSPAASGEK
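Cells expressing TRPV1 were dye-loaded with Fluo-8 and read kinetically: 10 s baseline, 3 min after compound (agonist portion), then 2 min after EC20 capsaicin (allosteric enhancer portion). Calcium-bound dye fluorescence at 480/520 nm.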
Starred values were filed as active, the others as inactive; [ ] = another dose, or the depositor's remark.

`O=C(CN(CC1CCCO1)C(=O)CNS(=O)(=O)c1ccc(Cl)cc1)NCc1ccc(F)cc1` (stereo not given) gave Sfp PPTase inh 10%, Menin MLL FP FL -4.7, gsp antagonist -21%, D2 PAM -8, ClpP mod -0.3%, gsp ag 35%[15.4 µM] and TRPV1 PAM 2.
COc1ccccc1-c1cnnc(N/N=C/c2ccc(-c3cccc(Br)c3)o2)n1 was read as Sfp PPTase inh 8%, Menin MLL FP FL 1.2, gsp antagonist -2%, D2 PAM -12, ClpP mod -0.7%, gsp ag -45%[inhibitor] and TRPV1 PAM -14.
CCOC(=O)C1=C(COC(=O)c2cc(S(=O)(=O)N(C)C)ccc2C)NC(=O)NC1C (stereo not given) was read as gsp antagonist -2%, D2 PAM 4, ClpP mod -2.4%, gsp ag 0% and TRPV1 PAM 3.
`CC(C)C[C@H](NC(=O)OC(C)(C)C)c1nnc(SCc2ccccc2)o1` gave Sfp PPTase inh 10%, Menin MLL FP FL -2.4, gsp antagonist 6%, D2 PAM -21, ClpP mod -0.9%, gsp ag -25% and TRPV1 PAM -9.
For COc1cccc(NC(=O)c2nc3ncccn3n2)c1 the results were Sfp PPTase inh -3%, Menin MLL FP FL 1.4, gsp antagonist 3%, D2 PAM 9, ClpP mod -1.3%, gsp ag 24% and TRPV1 PAM inconclusive.
For O=C(c1ccc(COc2ccc(Cl)cc2Cl)o1)N1CCCC1 the results were Sfp PPTase inh -13%, gsp antagonist -34%, D2 PAM 10, ClpP mod -1.6%, gsp ag 1% and TRPV1 PAM -6.
COc1ccc(S(=O)(=O)Nc2cc3c4c(c2)CCN4C(=O)CC3)cc1 was read as gsp antagonist 3%, D2 PAM -2, gsp ag -25%[15.4 µM] and TRPV1 PAM -13.
Screening CC(=O)n1cc(/C=N/NC(=O)c2sc(C)nc2C)c2ccccc21 returned Sfp PPTase inh 4%, Menin MLL FP FL 1.5, gsp antagonist -13%, D2 PAM -10, ClpP mod inconclusive, gsp ag -10% and TRPV1 PAM 28.
C/C(=N\NS(=O)(=O)c1ccc(C(C)(C)C)cc1)c1ccccc1 was read as Sfp PPTase inh -5%, Menin MLL FP FL -13, gsp antagonist 4%, D2 PAM -7, ClpP mod -1.7%, gsp ag -3% and TRPV1 PAM -3.
COc1ccc([C@H]2CC(=O)C=C(c3ccc4ncccc4c3)C2)cc1 was read as gsp antagonist -7%, D2 PAM -8, ClpP mod -1.9% and TRPV1 PAM -2.
Screening CC1=C(C(=O)OCC2CCCO2)C(c2ccsc2)C2=C(CC(C)(C)CC2=O)N1 (stereo not given) returned Sfp PPTase inh 11%, Menin MLL FP FL 0.6, gsp antagonist -3%, D2 PAM -10, ClpP mod -17%, gsp ag 9% and TRPV1 PAM -8.
`CCOc1ccc(S(=O)(=O)N2CCC(C(=O)N3CCCCCC3)CC2)cc1C` gave Sfp PPTase inh 6%, gsp antagonist -1%, D2 PAM -14, ClpP mod -1.0%, gsp ag -2% and TRPV1 PAM -3.
O=C(CN1C(=O)C2CCCCC2C1=O)Nc1ccc(S(=O)(=O)Nc2ncccn2)cc1 (stereo not given) was read as Sfp PPTase inh 14%, Menin MLL FP FL 5.6, gsp antagonist 7%, D2 PAM 0, gsp ag -23%[15.4 µM] and TRPV1 PAM -3.
For COc1ccc(NC(=O)C(=O)Nc2cccc3cccnc23)cc1OC the results were Sfp PPTase inh 3%, Menin MLL FP FL -5.2, gsp antagonist 9%, D2 PAM 2, gsp ag 5% and TRPV1 PAM 1.
For COc1cccc(NC(=S)N2CCC(NC(=O)c3ccco3)CC2)c1 the results were Sfp PPTase inh 6%, gsp antagonist 10%, D2 PAM 0, ClpP mod 0.4%, gsp ag -5%[15.4 µM] and TRPV1 PAM -3.
`CC(C)(C)NCc1cc(Cl)ccc1OCc1ccccc1F` gave Sfp PPTase inh 19%, Menin MLL FP FL -0.1, gsp antagonist 15%, D2 PAM -13, gsp ag 7%[15.4 µM] and TRPV1 PAM 2.
Screening COc1ccc(S(=O)(=O)N2CCC(C(=O)N[C@H](C(=O)NC3CCCC3)C(C)C)CC2)cc1 returned Sfp PPTase inh 17%, gsp antagonist 13%, D2 PAM -2, ClpP mod 0.1%, gsp ag 2% and TRPV1 PAM 6.
`CC(CCc1ccccc1)NC(=O)C(=O)Nc1ccccc1` (stereo not given) gave Sfp PPTase inh 25%, Menin MLL FP FL 4.4, gsp antagonist -2%, D2 PAM -12, ClpP mod -2.0%, gsp ag 2% and TRPV1 PAM 0.
For FC(F)(F)c1cccc(CN2CCSCC2)c1 the results were Sfp PPTase inh -7%, Menin MLL FP FL 2.9, gsp antagonist 5%, D2 PAM -6, gsp ag inconclusive and TRPV1 PAM 17.
`CCCOc1ccc(C(=O)C(c2ccccc2)N2CCOCC2)cc1` (stereo not given) gave Sfp PPTase inh -25%, Menin MLL FP FL 1.6, gsp antagonist 7%, D2 PAM -15, ClpP mod 0.6%, gsp ag -1% and TRPV1 PAM -4.
For Cc1c(NS(=O)(=O)c2ccc(NC3CCCC3)c([N+](=O)[O-])c2)c(=O)n(-c2ccccc2)n1C the results were Sfp PPTase inh 15%, Menin MLL FP FL 6.2, gsp antagonist -6%, D2 PAM -11, ClpP mod inconclusive, gsp ag 30% and TRPV1 PAM 1.
Cc1sc2ncnc(N3CCCCC3)c2c1C was read as Sfp PPTase inh 12%, Menin MLL FP FL 1.9, gsp antagonist inconclusive, D2 PAM -1, ClpP mod 4.7%, gsp ag -11% and TRPV1 PAM -16.
For Cc1cc(C)nc(N2CCCC(C(=O)NC(C)C)C2)n1 (stereo not given) the results were Sfp PPTase inh 11%, Menin MLL FP FL -11, gsp antagonist 5%, D2 PAM -4, ClpP mod 4.3%, gsp ag -5% and TRPV1 PAM -1.
Cc1ccc(S(=O)(=O)Nc2ccc3cn[nH]c3c2)cc1C was read as gsp antagonist 2%, D2 PAM -8, ClpP mod -2.0% and gsp ag -14%[15.4 µM].
Screening C[C@@H]1C[C@@H]2OC(=O)[C@]3(C)[C@H]2[C@@H](OC3(C)O)[C@]2(C)C(=O)CC[C@H]12 (stereo not given in full) returned Sfp PPTase inh 12%, Menin MLL FP FL 4.3 and TRPV1 PAM 28.
For Cc1ccc(S(=O)(=O)N2C[C@H]3N(C(=O)OC(C)C)N(C(=O)OC(C)C)C[C@H](OC(=O)NCc4ccccc4)[C@@]3(O)C2)cc1 the results were D2 PAM -2, ClpP mod 1.7% and gsp ag -15%.
`CCc1ccc(-c2nc(SCC(=O)NC3CCCC3)n[nH]2)cc1` gave Sfp PPTase inh 18%, gsp antagonist -10%, D2 PAM -12, ClpP mod -2.3%, gsp ag -19% and TRPV1 PAM -3.
`CC1CC(C)CN(C(=O)C2CCN(S(=O)(=O)c3cccc4cccnc34)CC2)C1` (stereo not given) gave Sfp PPTase inh 2%, gsp antagonist -5%, D2 PAM -6, ClpP mod -1.1%, gsp ag inconclusive and TRPV1 PAM 0.
For Cc1ccc(NC(=O)CSc2nnc(C(F)(F)F)n2C)cc1[N+](=O)[O-] the results were Sfp PPTase inh 28%, Menin MLL FP FL 9.6, gsp antagonist 18%, D2 PAM -4, ClpP mod -2.4%, gsp ag -3%[15.4 µM] and TRPV1 PAM 1.
Cc1ccccc1Nc1c(-c2cccnc2)nc2ccccn12 was read as Sfp PPTase inh 10%, Menin MLL FP FL 3.2, gsp antagonist -6%, D2 PAM -2, ClpP mod -15%, gsp ag inconclusive and TRPV1 PAM -5.

Continued (2 carried over from the part before).
For Cc1ccc(NC(=O)CSc2nnc(C(F)(F)F)n2C)cc1[N+](=O)[O-] the results were Sfp PPTase inh 28%, Menin MLL FP FL 9.6, gsp antagonist 18%, D2 PAM -4, ClpP mod -2.4%, gsp ag -3%[15.4 µM] and TRPV1 PAM 1.
Cc1ccccc1Nc1c(-c2cccnc2)nc2ccccn12 was read as Sfp PPTase inh 10%, Menin MLL FP FL 3.2, gsp antagonist -6%, D2 PAM -2, ClpP mod -15%, gsp ag inconclusive and TRPV1 PAM -5.
Screening Cc1nnc(SCC(=O)N2CCCC2)n1-c1ccc(F)cc1 returned gsp antagonist 6%, D2 PAM -9 and gsp ag -12%[15.4 µM].
`CCn1c(C)c(P(=O)(N2CCOCC2)N2CCOCC2)c2ccccc21` gave Sfp PPTase inh 7%, Menin MLL FP FL -0.5, D2 PAM 5, gsp ag 5%[15.4 µM] and TRPV1 PAM 5.
For O=c1[nH]c(/C=C/c2cccc([N+](=O)[O-])c2)c([N+](=O)[O-])c(=O)[nH]1 the results were Sfp PPTase inh -19%, Menin MLL FP FL -3.5, gsp antagonist 2%, D2 PAM -8, ClpP mod 0.7%, gsp ag 0%[15.4 µM] and TRPV1 PAM -6.
Screening COc1ccc(/C=N/NC(=O)c2ccc(NC(=O)c3ccccc3Br)cc2)cc1 returned Sfp PPTase inh 10%, Menin MLL FP FL -1.1, gsp antagonist -9%, D2 PAM -6, ClpP mod -15%, gsp ag -17% and TRPV1 PAM -19.
Screening Cc1cccc(-c2cc(C(=O)Nc3sc(C)c(C)c3C(N)=O)c3ccccc3n2)c1 returned Sfp PPTase inh -18%, Menin MLL FP FL 2.2, gsp antagonist -11%, D2 PAM -6, ClpP mod -5.1%, gsp ag -23% and TRPV1 PAM -2.
Screening O=C(O)c1ccc(N=Nc2c(O)[nH]c3ccccc23)cc1 returned Sfp PPTase inh -13%, Menin MLL FP FL inconclusive, gsp antagonist 28µM*, D2 PAM 6, gsp ag inconclusive and TRPV1 PAM inconclusive.
For Cc1cccc(N/C=C/C(=O)c2cccs2)c1C the results were Sfp PPTase inh -13%, Menin MLL FP FL 6.3, gsp antagonist -11%, D2 PAM -24, ClpP mod 1.6%, gsp ag -64% and TRPV1 PAM -11.
O=C(O)Cc1ccc(NC(=O)C2CCCCC2C(=O)O)cc1 (stereo not given) was read as Sfp PPTase inh -2%, Menin MLL FP FL -4.9, gsp antagonist -2%, D2 PAM 5, ClpP mod 1.4%, gsp ag -12% and TRPV1 PAM -7.
For O=C(NCCc1nc2ccccc2[nH]1)/C(=C/c1ccc2c(c1)OCO2)NC(=O)c1ccccc1Cl the results were Sfp PPTase inh -7%, Menin MLL FP FL 7.2, gsp antagonist 6%, D2 PAM -4, ClpP mod -0.9%, gsp ag -6% and TRPV1 PAM -7.
